# AID504770: growth inhibitors of E. coli YBA685 in a screen for V. cholerae RctB (chromosome II replication) inhibitors. z-score (concentration not given with the values). E. coli YBA685 rctB-dependent plasmid, OD600 growth, 3 h; stronger effect = lower value. 130,000 tested, 0.27% active;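 active means z-score under -2 on both plates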;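 further: wells of about 30 µL received 100 nL stock; score is relative to mean and SD of the test wells; the first replicate is given; strong numbers were not always called active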
# CapD inh: blocks the Bacillus anthracis CapD enzyme. 140,000 tested, 0.23% active. purified CapD enzyme, fluorescence intensity read-out; stronger effect = lower value; some hits fall short of the stated cut. z-score (concentration not given with the values);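 active means z-score under -4 in either of two replicates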;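 further: stock transfer was 100 nL into about 40 µL; score is relative to mean and spread of the plate; one replicate is shown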
# The depositor's hits bear a star; . = not tested or not shown; & = joins results of further samples. These rows are one share of the data (hit frequency here may not be typical).
SMILES,AID504770,CapD inh
Cc1ccc(-c2nn(-c3ccccc3)cc2/C=N/O)o1,0.65,33
Cc1ccc2oc(-c3ccc(NC(=O)c4cc(Br)ccc4Cl)cc3O)nc2c1,.,1.6
O=C(Cn1nnc(-c2ccccc2)n1)N1CCCc2ccccc21,1.9,0.55
CCn1c2ccccc2c2cc(NC(=O)c3cccs3)ccc21,1.2,.
N#Cc1c(NC(=O)C2=COCCO2)sc2c1CCCC2,1.2,-0.96
COc1ccc(C(=O)N2CCc3cc(OC)c(OC)cc3C2c2ccccc2)cc1 (stereo not given),0.6,-0.33
CN1CCC2(CC1)N1CC3(C)CN2CC(C)(C1)C3O (stereo not given),-0.05,-0.66
O=C(NCCN1CCN(Cc2ccccc2)CC1)Nc1ccccc1,-0.85,-0.19
CCOC(=O)c1c(C)oc2ccc(N(C(=O)c3ccncc3)S(=O)(=O)c3ccc(C)cc3)cc12,.,-2.1
CCOc1ccc(C(=O)Nc2ccc3oc(-c4cccc(C)c4)nc3c2)cc1[N+](=O)[O-],.,-0.29
O=C1CCCN1C(=O)CSc1nc2ccccc2n1CCc1ccccc1,3,.
N#C/C(=C\C(=O)O)c1ccccc1,-0.3,-0.02

# 4 entries from above in a different format:
N#C/C(=C\C(=O)O)c1ccccc1
  AID504770 = -0.3 | CapD inh = -0.02

CN1CCC2(CC1)N1CC3(C)CN2CC(C)(C1)C3O (stereo not given)
  AID504770 = -0.05 | CapD inh = -0.66

O=C1CCCN1C(=O)CSc1nc2ccccc2n1CCc1ccccc1
  AID504770 = 3 | CapD inh = .

N#Cc1c(NC(=O)C2=COCCO2)sc2c1CCCC2
  AID504770 = 1.2 | CapD inh = -0.96

# Other entries follow.
SMILES,AID504770,CapD inh
CCCN1C(=O)c2ccccc2NC1c1ccc(OC)c(COc2ccc([N+](=O)[O-])c(C)c2)c1 (stereo not given),.,3.9
Cc1ccc(-c2nn(-c3ccccc3)cc2/C=C/C(=O)O)o1,0,64
CCNC(=O)C1CCCN(C2=NS(=O)(=O)c3ccccc32)C1 (stereo not given),-0.7,.
COCCOC(=O)C1=C(C)NC2=C(C(=O)CC(c3ccccc3)C2)C1c1cc(OC)c(OC)c(OC)c1 (stereo not given),.,9.6
O=C(Nc1nncs1)C1CCCCC1,-1.1,0.12
O=C(Nc1sc2c(c1C(=O)Nc1ccccc1)CCCCC2)c1ccccc1Cl,.,0.1
O=C(CSc1ncccn1)NC(=O)NC1CCCCC1,-1.1,.
COc1ccc2cc(-c3nc4ccccc4[nH]3)c(=N)oc2c1,-0.3&-0.4,3.1&9.1
Cc1ccc2occ(CC(=O)Nc3ccc(C)c(Cl)c3)c2c1,0.05,-0.14
Cn1cnnc1SCC(=O)NC1CCCC1,-0.95,-0.1
COc1cc(C)c2c(=O)c(Oc3ccccc3)c(C)oc2c1,0.45,-0.05
CCC(=O)Nc1nc2ccc(C)cc2s1,-0.55,0.67
CCOc1ccc(N/C(SCc2cccc([N+](=O)[O-])c2)=C(/C#N)C(N)=O)cc1,.,0.14
COc1ccc(C(=O)Nc2ccc(-c3cn4ccccc4n3)cc2)cc1,0.05,0.62
CCNc1nc(NCC)n2c(SCC(=O)N3CCc4ccccc4C3)nnc2n1,-0.4,.
C=CCn1c(=C(C#N)C#N)s/c(=C\c2ccc(Br)cc2)c1=O,0.45,.
CC(C)(C)OC(=O)N1Cc2ccccc2CC1C(=O)NNC(=O)c1cc(-c2ccccc2)nc2ccccc12 (stereo not given),.,2.1
Cc1ccc(-c2nnc(N3CCOCC3)c3ccccc23)cc1S(=O)(=O)NCc1ccccn1,0.6,0.17
Cc1ccc(CN(C(=O)COc2c(F)c(F)c(F)c(F)c2F)C2CCS(=O)(=O)C2)o1 (stereo not given),-0.6,0.64
COC(=O)c1csc2c(C(F)(F)F)cc(N3CCN(S(=O)(=O)c4ccc(Cl)cc4)CC3)nc12,.,2.1
Cc1ccc(C)c(SCC(=O)Nc2ccc(-n3cnnn3)cc2)c1,1,.
Cn1c(Sc2c([N+](=O)[O-])cc(C(F)(F)F)cc2[N+](=O)[O-])nnc1C(F)(F)F,.,0.94
CNc1ccc2ccccc2c1SC,-0.9,76
NC1=NC(c2cccc(Cl)c2)N(CCc2ccc(F)cc2)C(N)=N1 (stereo not given),0.6,2.6
CCC1(C)NC(=O)N(NC(=O)c2ccc(CSc3ncn[nH]3)cc2)C1=O (stereo not given),0.55,.
COc1ccc(Cn2c(=O)[nH]c3cc(C(=O)NCCCN4CCCCC4)ccc3c2=O)cc1,-0.2,1.5
COc1ccc(COc2ccc(CC#N)cc2)cc1,.,0.26
O=C(Nc1ccc2c(c1)oc1ccccc12)C(F)(F)F,0.9,.
CCc1nnc(NC(=O)CSc2nccn2-c2cc(C)cc(C)c2)s1,2.4,-0.75
Cc1nnc(N2C(=O)C(=O)/C(=C(/O)c3ccc(F)cc3)C2c2cccc(Oc3ccccc3)c2)s1 (stereo not given),.,-0.46
Cc1ccc(S(=O)(=O)Nc2ccc3oc(=O)sc3c2)c(C)c1,2.5,-0.65
COC(=O)c1c(NC(C)=O)sc2c1CCC2,-0.5,11
O=S(=O)(c1ccc(F)cc1F)N1CCN(CCCC(c2ccc(F)cc2)c2ccc(F)cc2)CC1,.,0.015
O=C(O)C1CCCCC1C(=O)Nc1cccc(C(=O)N2CCCCC2)c1 (stereo not given),-2,.
CC1CC(C)CN(C(=O)CSc2ncnc3ccccc23)C1 (stereo not given),-1.6,-1.4
Cc1ccc(C(=O)Nc2c[nH]c(=O)[nH]c2=O)cc1,-1.1,-0.41
C/C(=N\OC(=O)c1ccccc1)c1csc(-c2snnc2C)n1,-0.1,0.015
COc1cc(C2C3=C(CC(C)(C)CC3=O)OC3=C2C(=O)CC(C)(C)C3)cc2sc(=O)oc12,.,-0.41
COC1(C)COC(C)(OC)CO1 (stereo not given),-0.6,0.13
COc1ccc(CC(=O)NCc2nnc(SCCOc3ccccc3)n2C)cc1,-1.1,-0.89
Cc1ccccc1Nc1c(-c2ccc(O)cc2)nc2cnccn12,-0.6,24
CCOC(=O)COc1nc(-c2ccccc2)nc2ccccc12,0.25,0.46
CC(=O)N(CCC(c1ccccc1)C1CCOC(C)(C)C1)Cc1ccccc1 (stereo not given),-0.15,0.035
COc1ccc(NC2=Nc3ccccc3CCC2)cc1,-1.8,64
O=C(O)CCCNc1ncnc2ccc(Br)cc12,-0.3,-0.38
CCCOC(=O)c1ccc(NC(=O)CN(C)C)cc1,-0.4,.
CCCN=C1NN=C(c2ccc(OCC)cc2)CS1,1.1,.
CC(C)(C)OC(=O)NN1C(=O)c2ccccc2C1=O,-0.85,0.16
Cc1ccc(NC(=O)CSc2nc3cc(C(=O)NCC4CCCO4)ccc3c(=O)n2Cc2ccco2)cc1Cl (stereo not given),.,0.52
COc1ccc(C(=O)NNC(=O)c2cc3ccccc3n2C)cc1,.,0.12
CCCNC(=O)c1cc(Cl)c(NC(C)=O)cc1OC,0,0.44
O=C1CCC(C(=O)NCCCn2ccnc2)N1 (stereo not given),-0.3,0.035
OC(c1nc2ccccc2[nH]1)C(O)c1nc2ccccc2[nH]1 (stereo not given),-0.05,0.58
CC1(c2ccccc2)CC(C)(C)N2C(=O)Cc3cccc1c32 (stereo not given),-0.45,0.35
Cc1ccc(F)cc1NC(=O)CSc1ccccn1,0.1,0.58
CC12CCC(C(=O)O)(C/C1=N\O)C2(C)C (stereo not given),-0.5,0.22
Cc1ccccc1NC(=O)Cc1nc(-c2cc(C)n(Cc3ccco3)c2C)cs1,-0.2,.
COc1ccc2nc(NC(=O)c3ccc(S(=O)(=O)N4CCc5ccccc54)cc3)sc2c1,.,-0.22
N#CC(C(=O)NCc1ccccc1)c1nc2ccccc2nc1N1CCCC1 (stereo not given),0,.
CC1(C)CC2=NN(c3ccccc3)P(=S)(Nc3nccs3)C2=C(N2CCCC2)C1 (stereo not given),-0.9,.
# Carrying on:
SMILES,AID504770,CapD inh
C=CCOc1cccc(C2C(C(=O)c3ccc(C)o3)=C(O)C(=O)N2c2nnc(C)s2)c1 (stereo not given),-0.75,-3.7
O=C(Nc1ccccc1Cl)/C(=C\c1ccc2c(c1)OCO2)NC(=O)c1ccccc1Br,.,1.2
Cc1nnsc1C(=O)N1CCC(O)(c2ccc(Cl)cc2)CC1,-0.1,-0.11
O=C(O)CNC(=O)COc1ccccc1,-0.4,.
CCOc1cc(C#N)cc(I)c1OCC(=O)OC,-0.5,-0.34
CC(=O)Nc1ccc(S(=O)(=O)N2CCCCCC2)cc1,0.35,0.03
Nc1nnc(C2CC2)s1,0.15,0.24
O=C(Cc1n[nH]c(=O)c2ccccc12)Nc1cccnc1,-0.15,.
CC(C)Cc1ccc(S(=O)(=O)Nc2noc3ccccc23)cc1,0.85,-1
CCc1nnc(NC(=O)c2ccc(S(=O)(=O)N(C)C)cc2)o1,-0.85,.
O=C(NC1CCN(Cc2ccccc2)CC1)c1cccc(N2CCCS2(=O)=O)c1,-0.45,1.1
C=CCNCc1cccn1-c1ccccc1,-0.3,.

# Compound profiles (already shown). Values in the order: AID504770, CapD inh
# Results for O=C(Nc1ccccc1Cl)/C(=C\c1ccc2c(c1)OCO2)NC(=O)c1ccccc1Br = ., 1.2
# Results for CC(=O)Nc1ccc(S(=O)(=O)N2CCCCCC2)cc1 = 0.35, 0.03
# Results for Nc1nnc(C2CC2)s1 = 0.15, 0.24
# Results for CC(C)Cc1ccc(S(=O)(=O)Nc2noc3ccccc23)cc1 = 0.85, -1
# Results for C=CCNCc1cccn1-c1ccccc1 = -0.3, .

# Two entries from above, as tab-separated lines:
canonical_smiles	AID504770	CapD inh
CCc1nnc(NC(=O)c2ccc(S(=O)(=O)N(C)C)cc2)o1	-0.85	.
O=C(NC1CCN(Cc2ccccc2)CC1)c1cccc(N2CCCS2(=O)=O)c1	-0.45	1.1

# Going on with the list:
SMILES,AID504770,CapD inh
O=C(CSCc1cnn(-c2ccccc2)c1-n1cccc1)NCCN1CCCC1,-1.3,-0.84
O=C(/C=C/c1cn(-c2ccccc2)nc1-c1cccnc1)NCCCn1ccnc1,-0.95,.
CCOC(=O)c1sc2nc(Cc3ccccc3)nc(NCC(OCC)OCC)c2c1C,.,39
CCSc1nc(C(F)(F)F)nc2ccccc12,-0.5,.
COCCNC(=O)C1CCN(C(=O)c2sccc2-n2cccc2)CC1,-1.4,0.11
c1c2c(cc3sc(N4CCOCC4)nc13)OCCO2,0.05,-0.79
N#CC(C#N)=C1C=C(c2ccccc2)Oc2ccccc21,0,-0.01
O=C(Nc1cccnc1)c1cc2ccccc2oc1=O,-0.45,-0.28
COc1ccc2c(c1)c(=O)c1ccccc1n2CC(=O)Nc1ccc2c(c1)OCCO2,.,-0.21
COC(=O)C(C)OC(=O)c1ccc(Cl)c(Cl)c1 (stereo not given),0.15,0.22
CCCc1cc(=O)[nH]c(SCC(=O)N2CCCCCC2)n1,-0.9,.
COc1ccccc1C(=O)Nc1ccccc1C(=O)N1CCCCC1,1.9,-1
Cc1[nH]c(C)c(S(=O)(=O)N2CCCCC2)c1C(=O)N1CCCCC1,0.95,-0.69
C[C@]12CC[C@@H]3c4ccc(OS(=O)(=O)O)cc4CC[C@H]3[C@@H]1CCC2=O,.,-0.26
COC(=O)CN1C(C)=Nc2ccc(Br)cc2C1c1ccccc1 (stereo not given),-0.5,-0.12
Cc1ccc2oc(=O)c3cnn(CC(=O)NC4CCC(C)CC4)c3c2c1 (stereo not given),-1.6,-0.16
COc1cccc(NC(=O)c2sc3nc4c(c(-c5ccco5)c3c2N)CCC4)c1,.,-0.6
COc1cc2c(cc1OC)CN(C(=O)c1cc(C(C)(C)C)nn1C)CC2,-0.3,-0.14
CC(=O)N1CCN(C(=O)C2CCN(S(=O)(=O)c3ccccc3C(F)(F)F)CC2)CC1,0.15,.
O=C(Nc1ccccc1C(=O)NCc1ccco1)c1ccc(Cl)cc1,-0.6,0.14
Cc1cc(/C(N)=N\O)n(C)n1,-1.3,0.1
CCSc1nnc(NC(=O)COc2ccccc2)s1,-0.25,.
CC1=C(C#N)C(c2ccc3c(c2)CCC(C)(C)O3)C2=C(CCCC2=O)N1 (stereo not given),0.6,8.5
COc1cn(-c2ccccc2)nc1C(=O)OCc1ccc(C#N)cc1,0.25,.
COc1cc(OC)c2c3c(c(=O)oc2c1)CCCC3,0,70
CCOc1ccccc1/C=C1/N=C(C)OC1=O,-0.5,0.28
O=C(Nc1cc(Cl)ccc1Oc1ccc2ccccc2c1Br)c1cc(Cl)cc(I)c1O,.,0.54
c1ccc2sc(CCc3nc4ccccc4s3)nc2c1,0.05,0.41
CC(=O)c1ccc(N2CCN(C(=O)CCCCNC(=O)OC(C)(C)C)CC2)cc1,.,2.6
COc1ccc2oc(=O)cc(CN3CCN(c4ncccn4)CC3)c2c1,-0.3,4
CCc1ccc(NC(=O)CSc2nncn3c2cc2occc23)cc1,0.65,-0.18
Cc1cccc(N2CCN(CCCNc3nnc4c5ccccc5n(C)c4n3)CC2C)c1 (stereo not given),-0.3,-1.5
CCOC(=O)C1=C(C)N=c2s/c(=C\c3ccc(OC(C)=O)cc3)c(=O)n2C1c1cccc([N+](=O)[O-])c1 (stereo not given),.,-0.34
O=C(c1cccc(Cl)c1)N(Cc1ccccc1)Cc1ccccc1,-0.8,-0.01
Cc1cc(/C=N/NC(N)=O)c(C)n1-c1ccc(C(F)(F)F)cc1,.,-0.57
Cc1nc(C)c(-c2ccnc(C34CC5CC(CC(C5)C3)C4)n2)o1,-0.6,0.3
O=C(CCC(=O)N1CCC(N(C2CC2)S(=O)(=O)c2ccccc2)CC1)NCc1cccc(C(F)(F)F)c1,.,-0.19
CC1CCCCN1C(=O)CSc1nnc2c3ccccc3n(CC(=O)O)c2n1 (stereo not given),-0.6,.
COc1ccc(Br)cc1/C=C1\C(=O)N(c2ccc(Cl)c(C(=O)O)c2)N=C1C,.,-0.1
O=S(=O)(Oc1cc(Cl)cc(Cl)c1)c1cccc(S(=O)(=O)Oc2cc(Cl)cc(Cl)c2)c1,.,0.95
